Fam108B inh – mouse Fam108B serine hydrolase inhibitors, primary screen, counter-screen for RBBP9 inhibitor project, biochemical, fluorescence polarization; 0.33% of 300,000 active; inhibition, % at 9.51 µM; recombinant Fam108B, FP-Rh probe fluorescence polarization; AID 1947, 2009;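 active = inhibition above the screen mean inhibition plus 3 SD, computed separately per campaign, cut at about 18% in these data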;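 also: inhibitors lower polarization as less probe binds the enzyme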
PAFAH2 FP inh – PAFAH2 enzyme inhibitors, primary screen, biochemical, fluorescence polarization, human | inhibition, % at 3.39 µM | recombinant PAFAH2, FP-rhodamine activity probe | 0.99% of 340,000 active | Platelet-activating factor acetylhydrolase 2, cytoplasmic (Homo sapiens), Q99487;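 active = inhibition above the mean over all tested compounds plus 3 SD, cut at about 30% in these data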;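 also: inhibitors block probe labeling of enzyme so polarization drops; 0% = enzyme with DMSO and 100% = wells lacking PAFAH2 protein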
PAFAH1B3 inh – PAFAH1B3 enzyme inhibitors, primary screen, biochemical, fluorescence polarization, human | inhibition, % at 3.39 µM | AID 492972, 2010 | 0.28% of 340,000 active | recombinant PAFAH1B3, FP-rhodamine probe;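 active = inhibition above the screen-wide average of all tested compounds plus 3 SD, cut at about 25% in these data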;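 also: 0% = enzyme with DMSO only and 100% = wells lacking PAFAH1B3 protein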
Target sequence (Q15102 whole entry, looked up): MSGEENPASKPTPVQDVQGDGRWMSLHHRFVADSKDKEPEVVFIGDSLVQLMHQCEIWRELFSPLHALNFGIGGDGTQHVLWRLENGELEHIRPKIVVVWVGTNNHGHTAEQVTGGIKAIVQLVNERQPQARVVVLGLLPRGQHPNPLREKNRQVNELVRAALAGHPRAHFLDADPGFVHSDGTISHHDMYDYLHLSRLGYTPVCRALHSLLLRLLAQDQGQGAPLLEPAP
PAFAH1B2 FP inh – PAFAH1B2 enzyme inhibitors, primary screen, biochemical, fluorescence polarization, human; inhibition, % at 3.39 µM; recombinant PAFAH1B2, FP-rhodamine activity probe; AID 492953, 2010; 1.2% of 340,000 active;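 active = inhibition above the mean of all tested compounds plus 3 SD, cut at about 24% in these data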;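 also: 0% = enzyme with DMSO and 100% = wells lacking PAFAH1B2; many of its hits are not listed in these tables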
pPAFAH FP inh – pPAFAH enzyme inhibitors, primary screen, biochemical, fluorescence polarization, human. recombinant pPAFAH, FP-rhodamine probe fluorescence polarization. inhibition, % at 3.39 µM. 1.5% of 330,000 active;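 active = inhibition above the mean inhibition across the screen plus 3 SD, cut at about 25% in these data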;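 also: inhibitors block binding of the rhodamine activity-based probe so polarization drops; 0% = enzyme with DMSO and 100% = wells lacking pPAFAH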
Target sequence (Q13093 whole entry, looked up): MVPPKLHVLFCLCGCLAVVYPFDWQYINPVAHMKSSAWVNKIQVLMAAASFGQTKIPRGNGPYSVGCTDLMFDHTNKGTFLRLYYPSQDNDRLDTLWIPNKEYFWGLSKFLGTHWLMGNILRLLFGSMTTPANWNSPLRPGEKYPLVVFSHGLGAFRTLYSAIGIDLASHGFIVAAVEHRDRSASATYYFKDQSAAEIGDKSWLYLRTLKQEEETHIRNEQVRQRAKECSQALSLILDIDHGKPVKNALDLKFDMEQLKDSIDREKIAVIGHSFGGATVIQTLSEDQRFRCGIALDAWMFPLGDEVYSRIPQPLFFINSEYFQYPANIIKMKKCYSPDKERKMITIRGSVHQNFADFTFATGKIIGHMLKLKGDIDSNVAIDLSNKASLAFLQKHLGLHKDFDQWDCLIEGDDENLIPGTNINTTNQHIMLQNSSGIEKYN
PAD4 FP inh – human PAD4 inhibitors, primary screen, biochemical, fluorescence polarization, 1536-well format | Protein-arginine deiminase type-4 (Homo sapiens), Q9UM07 | recombinant PAD4, RCA probe fluorescence polarization | inhibition, % at 6.36 µM | 0.41% of 330,000 active | AID 485272, 2010;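 active = percent inhibition above a cutoff equal to the mean of all tested compounds plus 3 SD, cut at about 15% in these data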;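 also: 0% = PAD4 with RCA probe and DMSO and 100% = probe without PAD4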
LYPLA1 inh – LYPLA1 inhibitors, primary screen, counter-screen for PME1 inhibitor project, biochemical, fluorescence polarization, FP-Rh probe ABPP; AID 2174, 2009; 0.16% of 320,000 active; Acyl-protein thioesterase 1 (Homo sapiens), O75608; inhibition, % at 5.9 µM; recombinant LYPLA1;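 active = inhibition above the mean of all tested compounds plus 3 SD, set per campaign, cut at about 14% in these data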;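 also: inhibitors block serine hydrolase probe labeling of LYPLA1 so polarization falls; 0% = enzyme with DMSO and 100% = wells lacking LYPLA1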
PME-1 primary – PME-1 inhibitors via competitive probe labeling, primary screen, biochemical, fluorescence polarization, FP-Rh probe, HTS; Protein phosphatase methylesterase 1 (Homo sapiens), Q9Y570; recombinant PME-1; inhibition, % at 5.9 µM; 0.53% of 320,000 active;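 active = inhibition above the campaign mean of all compounds plus 3 SD, cut at about 26% in these data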;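 also: competitive labeling of PME-1 active site by serine hydrolase directed probe; 0% = PME-1 with DMSO and 100% = wells lacking PME-1 enzyme; inhibitors block probe labeling so polarization falls and inhibition rises; many of its hits are not listed in these tables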
Target sequence (Q9Y570 whole entry, looked up): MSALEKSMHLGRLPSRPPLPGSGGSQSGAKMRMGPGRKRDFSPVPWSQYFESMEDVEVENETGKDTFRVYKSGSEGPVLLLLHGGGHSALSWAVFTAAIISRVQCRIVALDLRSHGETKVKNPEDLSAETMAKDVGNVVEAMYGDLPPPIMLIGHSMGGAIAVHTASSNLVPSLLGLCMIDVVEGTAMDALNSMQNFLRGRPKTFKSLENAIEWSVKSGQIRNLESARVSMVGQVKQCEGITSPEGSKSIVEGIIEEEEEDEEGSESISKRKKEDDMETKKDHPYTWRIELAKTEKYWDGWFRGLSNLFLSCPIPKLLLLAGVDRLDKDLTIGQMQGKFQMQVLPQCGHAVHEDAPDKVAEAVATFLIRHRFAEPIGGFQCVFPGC
An asterisk follows results filed as active; . = not tested or not shown. Some of the compounds tested (hit frequency here may not be typical).

#1 CCOc1ccc(Cc2nnc(SCC(=O)Nc3ccc(OC)cc3)n(N)c2=O)cc1
#2 O=C(NCCCl)NNC(=O)c1cc2ccccc2cc1O
#3 O=C(CSc1nnnn1-c1ccc(O)cc1)c1cc2ccccc2o1
#4 CC1Sc2ccc(S(=O)(=O)NCCc3ccccc3)cc2NC1=O (configuration not stated)
#5 Cc1ccc(C(=O)CSc2nnnn2Cc2ccccc2)cc1C
#6 C=CC(=O)NC(NC(=O)C=C)c1ccc(Br)cc1
#7 Cc1ccc(Nc2nc(N)nc(CSc3nc(C)cc(C)n3)n2)cc1
#8 COc1ccc(C(=O)CSc2nnc(CNC(=O)c3ccccc3)o2)cc1

entry no.	1	2	3	4	5	6	7	8
Fam108B inh	-4	10	-8	-1	-3	2	-4	0
PAFAH2 FP inh	-17	4	-10	1	-1	-4	-4	2
PAFAH1B3 inh	-8	10	-8	1	6	2	2	9
PAFAH1B2 FP inh	-6	2	6	5	3	1	2	4
pPAFAH FP inh	0	3	0	8	6	4	1	1
PAD4 FP inh	0	-1	2	-1	-5	3	-2	-3
LYPLA1 inh	-2	1	-10	-1	-1	0	0	1
PME-1 primary	-8	-1	-9	2	-9	3	-5	0

#9 O=C1CSc2ccc(S(=O)(=O)NCc3ccccc3)cc2N1
#10 O=C(CCl)NCCNC(=O)c1cc(OCC(F)(F)F)ccc1OCC(F)(F)F
#11 O=C(C1CC1)N1CCc2cc(S(=O)(=O)NCCC3=CCCCC3)ccc21
#12 CCCCSc1nnc(-c2ccc(C)cc2)o1
#13 O=C(NNc1ccccc1)C(=O)NNS(=O)(=O)c1ccc(CCCl)cc1
#14 COc1ccc(-n2ccsc2=S)cc1
#15 COC(=O)c1cc(S(=O)(=O)n2nc(C)cc2C)c(Cl)cc1Cl
#16 Cc1nnc(NC(=O)CSc2nc3c(c(=O)n2C)SC(C)C3)s1 (configuration not stated)

entry no.	9	10	11	12	13	14	15	16
Fam108B inh	4	-6	-3	2	1	0	-5	-5
PAFAH2 FP inh	-1	.	4	6	-10	0	.	-3
PAFAH1B3 inh	2	.	4	1	5	-6	.	5
PAFAH1B2 FP inh	6	.	2	5	17	-1	.	7
pPAFAH FP inh	-2	-7	11	-3	1	3	-5	-4
PAD4 FP inh	-3	-5	1	-1	2	-2	7	-1
LYPLA1 inh	-4	-6	1	-1	-4	1	-1	4
PME-1 primary	5	0	12	-1	2	-3	-8	0

#17 Cc1ccc(NS(=O)(=O)c2ccc3c(c2)NC(=O)CO3)cc1C
#18 O=C(Nc1ccnn1C1CCN(Cc2ccc(C#CCCO)cc2)CC1)c1cccc(F)c1
#19 Cc1ccc(C(=O)c2c3ccc(C(F)(F)F)cc3nn2CCC(N)=O)cc1
#20 CCc1ccc(C(=O)CSc2n[nH]c(-c3ccncc3)n2)cc1
#21 O=C(COn1nnc2ccc(S(=O)(=O)N3CCOCC3)cc21)Nc1c(F)c(F)c(F)c(F)c1F
#22 CC1CCc2c(c3ccccc3n2C(=O)CCl)C1 (configuration not stated)
#23 O=C(Nc1ccnn1C1CCN(C/C=C/c2ccccc2)CC1)c1cccc(F)c1
#24 Cc1ccc(/C=C/C(=O)O)cc1S(=O)(=O)Nc1ccc2c(c1)OCO2

entry no.	17	18	19	20	21	22	23	24
Fam108B inh	3	-2	1	-1	0	-5	-3	3
PAFAH2 FP inh	0	4	2	7	5	1	-7	2
PAFAH1B3 inh	3	9	4	12	8	10	-1	8
PAFAH1B2 FP inh	11	6	1	7	9	2	2	0
pPAFAH FP inh	8	0	14	0	1	6	-1	4
PAD4 FP inh	-3	0	0	-2	2	-2	-3	1
LYPLA1 inh	0	-3	1	2	1	-3	-4	-1
PME-1 primary	0	1	-1	0	4	-2	-3	0

#25 CC(C)(C)NC(=O)CSc1nc(N)cc(=O)[nH]1
#26 C=CCn1c2ccccc2c2nnc(SCN3C(=O)c4ccccc4C3=O)nc21
#27 COCCn1c(N)c(C(=O)Nc2sc3c(c2C(=O)OC)CCCC3)c2nc3ccccc3nc21
#28 N=C1SCC(=O)N1c1nc(-c2ccccc2)cs1
#29 CC1(C)CC(=O)C2(CC3=C(CC(C)(C)CC3=O)O2)C(=O)C1
#30 CC(=O)C(Cc1ccccc1)NC(=O)CCl (configuration not stated)
#31 O=C(N/N=C/c1ccc([N+](=O)[O-])s1)c1ccccc1Br
#32 O=C1C(Cl)=C(Nc2ccc(F)cc2)C(=O)N1CCc1ccccc1

entry no.	25	26	27	28	29	30	31	32
Fam108B inh	2	-6	-1	10	-6	0	3	4
PAFAH2 FP inh	0	-1	8	1	2	-6	10	0
PAFAH1B3 inh	7	-5	12	8	2	9	5	8
PAFAH1B2 FP inh	-2	-4	11	-3	6	6	3	8
pPAFAH FP inh	3	7	1	10	0	2	-1	0
PAD4 FP inh	0	-2	0	-4	0	0	-7	-4
LYPLA1 inh	0	-3	3	3	1	1	4	-2
PME-1 primary	-2	-7	-1	4	1	1	3	1

#33 CCc1cccc2c(C(=O)CCl)c[nH]c12
#34 CCOc1ccc(NC(=O)CSc2nncc(=O)[nH]2)cc1
#35 NC(=O)c1c(NC(=O)CSc2nnc(Cc3ccccc3)n2Cc2ccco2)sc2c1CCC2
#36 CC(Nc1c([N+](=O)[O-])c(=O)oc2ccccc12)C(Cl)c1ccccc1 (configuration not stated)
#37 Cc1cccc(CCNC(=O)c2cc(S(=O)(=O)N3CCCCC3)c[nH]2)c1
#38 Cc1ccc(NC(=O)Cn2ccsc2=N)c([N+](=O)[O-])c1
#39 CCN(CC)S(=O)(=O)c1ccc2nc(CCl)[nH]c2c1
#40 COc1ccc(NC(=S)NNC(=S)Nc2cccc(C(F)(F)F)c2)cc1

entry no.	33	34	35	36	37	38	39	40
Fam108B inh	-2	4	-1	3	0	0	-3	13
PAFAH2 FP inh	-1	2	-16	0	-1	3	1	17
PAFAH1B3 inh	5	-6	-2	-4	2	-1	1	9
PAFAH1B2 FP inh	-2	3	5	4	8	2	-1	9
pPAFAH FP inh	-2	3	12	-2	-5	-3	1	17
PAD4 FP inh	7	-1	1	-3	-3	1	-1	3
LYPLA1 inh	0	0	-1	-1	4	-1	-1	-5
PME-1 primary	-1	-2	2	2	1	0	2	18

Values in list order from the entries so far.
LYPLA1 inh for entries 1–9: -2, 1, -10, -1, -1, 0, 0, 1, -4

The listing continues.
#41 O=C1c2ccccc2C(=O)N1CSc1ncccn1
#42 Cc1cccc(Nc2nc(N)nc(CSc3nccc(C)n3)n2)c1
#43 CCOC(=O)Cc1cnc(NC(=O)CSc2nc(N)cc(=O)[nH]2)s1
#44 Cc1ccc(C)c(NC(=O)CSc2nc3[nH]ncc3c(=O)[nH]2)c1
#45 Cc1nn(C)c(Oc2ccccc2)c1CCNC(=O)CCl
#46 COc1ccc(/C=C/C(=O)c2cc(F)ccc2OC(=O)c2ccccc2C)cc1OC
#47 Clc1ccc(CSc2nnc(Cn3cnc4ccccc43)o2)cc1
#48 O=S(=O)(c1cnc(Cl)c(Br)c1)N1CCCCCC1

entry no.	41	42	43	44	45	46	47	48
Fam108B inh	1	1	-5	-1	-5	-4	7	-3
PAFAH2 FP inh	0	-8	-4	-3	-4	-4	-8	-6
PAFAH1B3 inh	7	2	2	0	13	7	3	-6
PAFAH1B2 FP inh	7	3	4	6	1	-1	7	-1
pPAFAH FP inh	-2	7	3	-2	1	-5	-11	3
PAD4 FP inh	-4	-2	0	-1	0	-2	-1	-1
LYPLA1 inh	0	0	0	2	2	-1	-2	5
PME-1 primary	0	0	3	3	2	-5	5	-1

#49 CCOC(=O)Cc1cc(=O)n(-c2nc3ccccc3s2)[nH]1
#50 COc1ccc(NC(=O)c2cc(=O)[nH]c(=O)[nH]2)cc1S(=O)(=O)Nc1ccccc1Cl
#51 O=C(CSc1nnc(-c2ccco2)o1)c1ccc(O)cc1O
#52 NC(=O)C1CCN(Cc2nc3cc(Cl)ccc3c(=O)[nH]2)CC1
#53 Cc1ccc(NS(=O)(=O)c2ccc3c(c2)NC(=O)CO3)c(C)c1
#54 CSc1ncccc1C(=O)OCC(=O)c1ccc(S(=O)(=O)N2CCCCC2)cc1
#55 CCc1nc(SCC(=O)Nc2nnc(CC)s2)c2c(=O)n(C)c(=O)n(C)c2n1
#56 CCn1cc(C(=O)OCC(=O)NCc2ccc3c(c2)OCO3)c(=O)c2ccc(C)nc21

entry no.	49	50	51	52	53	54	55	56
Fam108B inh	7	0	3	1	2	-2	3	1
PAFAH2 FP inh	31*	-7	7	-5	1	3	0	-9
PAFAH1B3 inh	4	1	11	7	5	2	6	2
PAFAH1B2 FP inh	1	-1	10	0	1	2	7	-1
pPAFAH FP inh	41*	1	-1	5	23	-4	-8	6
PAD4 FP inh	-13	6	-1	-4	-3	4	2	-3
LYPLA1 inh	-1	-6	-1	-3	1	0	-2	2
PME-1 primary	8	-6	-1	1	-3	-8	1	8

#57 CCC(=O)Nc1nc2c(s1)COc1ccccc1-2
#58 Cc1ccc(C(=O)CSc2nnc(CNc3ccc(F)cc3)o2)cc1
#59 O=C(O)c1ccc2c(=O)[nH]c(CCl)nc2c1
#60 COc1ccc(Cl)cc1NC(=O)Cn1c(=O)n2nc(C)nc2c2ccccc21
#61 CCCn1c(SCC(=O)c2ccc(CC)cc2)n[nH]c1=O
#62 COc1ccc(C(=O)CSc2nnnn2Cc2ccccc2)cc1
#63 O=C(c1ncn[nH]1)N1CCN(c2nc(-c3ccccc3)cs2)CC1
#64 N#Cc1c(N)n(CCOC(=O)c2cccc(Br)c2)c2nc3ccccc3nc12
#65 Cc1cc(C)c(NS(=O)(=O)c2ccc3c(c2)NC(=O)CCS3)c(C)c1
#66 O=C(CSc1ccc2ccccc2c1Br)Nc1cccc(S(=O)(=O)NC2=NCCCCC2)c1

entry no.	57	58	59	60	61	62	63	64	65	66
Fam108B inh	4	3	1	-1	5	-2	8	3	1	-9
PAFAH2 FP inh	2	5	8	-5	0	-1	0	2	5	-45
PAFAH1B3 inh	6	6	6	-3	7	1	4	6	2	-14
PAFAH1B2 FP inh	5	10	2	2	4	-1	5	8	4	-8
pPAFAH FP inh	-2	-3	1	4	3	3	7	2	1	-5
PAD4 FP inh	-1	4	1	-4	2	-2	1	-1	-7	-30
LYPLA1 inh	-1	-3	0	0	7	0	6	-1	-4	-45
PME-1 primary	5	3	-5	3	2	-8	-1	7	-1	3

Six entries picked at random from the list so far:
#65 Cc1cc(C)c(NS(=O)(=O)c2ccc3c(c2)NC(=O)CCS3)c(C)c1
#64 N#Cc1c(N)n(CCOC(=O)c2cccc(Br)c2)c2nc3ccccc3nc12
#60 COc1ccc(Cl)cc1NC(=O)Cn1c(=O)n2nc(C)nc2c2ccccc21
#62 COc1ccc(C(=O)CSc2nnnn2Cc2ccccc2)cc1
#66 O=C(CSc1ccc2ccccc2c1Br)Nc1cccc(S(=O)(=O)NC2=NCCCCC2)c1
#61 CCCn1c(SCC(=O)c2ccc(CC)cc2)n[nH]c1=O

entry no.	65	64	60	62	66	61
Fam108B inh	1	3	-1	-2	-9	5
PAFAH2 FP inh	5	2	-5	-1	-45	0
PAFAH1B3 inh	2	6	-3	1	-14	7
PAFAH1B2 FP inh	4	8	2	-1	-8	4
pPAFAH FP inh	1	2	4	3	-5	3
PAD4 FP inh	-7	-1	-4	-2	-30	2
LYPLA1 inh	-4	-1	0	0	-45	7
PME-1 primary	-1	7	3	-8	3	2

From PubChem
